# Biofilm kill mix: clotrimazole potentiators killing C. albicans biofilm, primary screen, 4-compound mixtures. C. albicans biofilm persisters + clotrimazole, fluorescence viability; primary screen in compound mixtures of four per well. 120,000 tested, 0.02% active. AID 1242, 2008. inhibition, % at 7.6 µM;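 active = inhibition above 30.3% in the primary screen of four-compound pools, then above 30% when the compound was retested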;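 also: compounds exposed to preformed 24 h biofilms for 48 h; the number belongs to the whole pool; some results filed as inactive read as strong as hits; inactives centre near 12; 0% = biofilm with clotrimazole alone and 100% = kill control; retested singly at about 60 µM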
#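 Test system: C. albicans CAF4-2 wild-type biofilms; buffer or medium: RPMI/MOPS medium, pH 7.0; schedule: 24 h biofilm formation, then 48 h compound exposure, 37 °C; detection: Alamar Blue fluorescence; measure: percent inhibition of biofilm viability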
# Active calls of the source: *. Not all compounds are listed (hit frequency here may not be typical).
SMILES,Biofilm kill mix
Cc1n[nH]c(=S)n(/N=C/c2cccc([N+](=O)[O-])c2)c1=O,15.4
O=C(CN1CCCCCC1)NN(Cc1ccccc1)c1ccccc1,6.6
Clc1ccc(CO/N=C/c2cccs2)cc1,17.5
CC1=C(C(=O)Nc2ccc(C)cc2C)C(c2cccc([N+](=O)[O-])c2)n2nc(C(=O)OC(C)C)nc2N1 (stereo not drawn),-0.3
O=C(CCl)c1ccc2c(c1)CCN2C(=O)C1CC1,31.7
C=CCn1c(-c2cc3c(s2)CCC(CC)C3)n[nH]c1=S (stereo not drawn),6.0
O=C(O)CCC(=O)Nc1ccccc1C(=O)N1CCN(c2ccc(Cl)cc2)CC1,5.7
CCN(CC(=O)Nc1ccc(Cl)c(S(=O)(=O)N(C)C)c1)Cc1nc2ccccc2c(=O)[nH]1,-1.3
Cc1cc(=O)oc2cc(OCC(=O)c3ccc4c(c3)NC(=O)CO4)ccc12,-1.8
Cc1c(C(=O)Nc2ccccc2C(=O)N2CCOCC2)cccc1[N+](=O)[O-],13.2
CC(=O)OC[C@H]1O[C@H](C/C=N/OC[C@@H](O)[C@H]2O[C@@H]3OC(C)(C)O[C@@H]3[C@H]2O)C=C[C@@H]1OC(C)=O,0.9
O=C(CSc1nc2ccccc2c(=O)n1-c1ccccc1F)Nc1ccc2c(c1)CCC2,11.4
CCOC(=O)N1CCc2c(sc3ncn(C)c(=O)c23)C1,19.1
COc1ccc(CC(=O)NNS(=O)(=O)c2ccccc2)cc1OC,19.3
Cc1nc([N+](=O)[O-])c(Br)n1CC(=O)c1cccc([N+](=O)[O-])c1,9.9
CCC1Sc2ccccc2N(CC(=O)NC2CCCC2)C1=O (stereo not drawn),17.9
Cc1ccc(-c2ccc(SCC(=O)Nc3ccc4c(c3)OCCO4)nn2)cc1,3.4
O=C(Nc1ccsn1)c1ccc(Cl)cc1Cl,24.5
CCc1nnc(NC(=O)c2oc3cc(C)c(C)cc3c2C)s1,5.4
CC(C)CN1C(=O)C(NC(=O)C2CC2)(C(F)(F)F)C2=C1CC(C)(C)CC2=O (stereo not drawn),8.1
COC(=O)c1ccc(Sc2ccccn2)c([N+](=O)[O-])c1,6.2
CC(OCCN(C)C)C(=O)C12CC3CC(CC(C3)C1)C2 (stereo not drawn),10.4
Cc1ccc(-n2c(SCC(=O)N/N=C/c3ccccc3C(=O)O)nnc2-c2ccccc2)cc1,15.8
O=C(NCc1ccco1)c1nc(-c2ccc(F)cc2)no1,21.4
O=C(NC(=S)Nc1cccc2cnccc12)c1ccccc1,14.6
Cc1ccc(C(O)(C(=O)NNc2ccccn2)c2ccc(C)cc2)cc1,-3.9
CCc1c(C)sc(NC(=O)c2cc(C(C)C)on2)c1C#N,11.9
O=C(CN1CCCC1)Nc1cc(C(F)(F)F)ccc1Cl,12.8
COC(=O)N/N=C(\CCC(=O)O)c1cccs1,9.7
O=C(O)C1CC=CCC1C(=O)Nc1ccc(N2CCN(Cc3ccccc3)CC2)cc1 (stereo not drawn),6.3
NS(=O)(=O)c1ccc(NC(=O)c2cccc(Cl)c2)cc1,6.8
CC(NC(=O)c1ccc(N(C)C)cc1)c1ccc(F)cc1 (stereo not drawn),2.8
O=Cc1[nH]c2ccccc2c1N(C(=O)CCl)c1ccccc1,29.4
O=C(O)c1ccccc1-c1nc2cc(Cl)ccc2c(=O)n1O,-1.2
N#Cc1cc(N)ccc1-n1cccc1,18.9
COC(=O)c1ccc(N2OC3(C)C=CC2CC3)cc1 (stereo not drawn),8.0
O=[N+]([O-])c1ccc(O)c2ncccc12,32.5*
Cc1noc(C)c1COc1ccc(C(=O)OCC(=O)NCCN2C(=O)CSC2=O)cc1,11.0
COc1cc(SC)ccc1C(=O)N1CC(C)OC(C)C1 (stereo not drawn),10.3
CC(C)c1cc(C(=O)N/N=C/c2cccnc2)cs1,0.7
N#CC1CN(Cc2ccccc2)CN(Cc2ccccc2)C1,14.3
Cc1cccc(C)c1NC(=O)CNCC(=O)N(C)C,13.9
COc1ccccc1NS(=O)(=O)c1ccc(OC)c([N+](=O)[O-])c1,5.6
CC(C)CN1C(=O)C(=O)N(CC(=O)NC2CCCc3ccccc32)C1=O (stereo not drawn),1.9
Cc1cccc(Oc2nc3c(c(=O)n(C)c(=O)n3C)n2C)c1,16.6

# An excerpt from the list above:
SMILES,Biofilm kill mix
Cc1cccc(C)c1NC(=O)CNCC(=O)N(C)C,13.9
COc1ccccc1NS(=O)(=O)c1ccc(OC)c([N+](=O)[O-])c1,5.6
CC(C)CN1C(=O)C(=O)N(CC(=O)NC2CCCc3ccccc32)C1=O (stereo not drawn),1.9
Cc1cccc(Oc2nc3c(c(=O)n(C)c(=O)n3C)n2C)c1,16.6

# Going on with the list.
SMILES,Biofilm kill mix
Cc1ccc(NC(=S)N/N=C/c2ccc([N+](=O)[O-])s2)cc1,13.6
CC(=O)N1N=C(N)SC1(C)C,10.8
CCCc1cc(C(=O)NNC(=S)Nc2cccc(C)c2)cs1,5.2
Cc1ccc(SCC(=O)Nc2ccccc2C(=O)N2CCOCC2)cc1,-5.5
COc1cc(C(=O)N=c2sc3ccccc3n2C)cc(OC)c1OC,11.0
O=C(c1cc(-c2ccccn2)nc2ccccc12)N1CCN(c2ncccn2)CC1,13.2
NC(=O)c1ccsc1NC(=O)Cc1ccc([N+](=O)[O-])cc1,1.4
CCN(CC)CCn1c(SCC(=O)Nc2cccc(OC)c2)nc2c(sc3ccccc32)c1=O,13.1
COc1ccc(-c2cc(C(F)F)n3ncc(C(=O)Nc4cc(C)on4)c3n2)cc1,7.8
Clc1ccc(-c2c[n+](Cc3ccc(Br)cc3)c3n2CCCCC3)cc1,19.6
Cc1ccccc1C(=O)Nc1ccc(O)cc1C(=O)O,3.9
CCCCCOC(=O)NC1CCS(=O)(=O)C1 (stereo not drawn),7.8
Cn1nc(NC(=O)C2CCC2C(=O)O)c2c(F)cccc21 (stereo not drawn),14.3
O=C(NCc1ccco1)c1ccc(Cl)c(S(=O)(=O)Nc2ccccc2)c1,14.2
CCC1CCCCN1CC(=O)c1c(C)[nH]c2ccc(OC)cc12 (stereo not drawn),5.0
COc1ccc(C(=O)N2c3ccccc3C=CC2C#N)cc1 (stereo not drawn),17.8
COCCn1c(Cc2ccccc2)nnc1SCC(=O)N1CCOCC1,5.1
CCN1CCN(c2nc(Nc3cccc(F)c3)nc(N)c2[N+](=O)[O-])CC1,13.4
COc1ccc(S(N)(=O)=O)cc1N(C)S(=O)(=O)c1ccccc1,16.1
CC(C)S(=O)(=O)c1csc(C(=O)NN)c1Cl,22.4
Cc1ccc(-c2csc3ncnc(SCc4ccc(C(=O)O)cc4)c23)cc1,4.1
O=C(NC(=S)Nc1ccc(CN2CCCCC2)cc1)c1ccco1,15.6
CCN(CC)S(=O)(=O)c1cccc(C(=O)c2c(C)cc3ccccn23)c1,10.7
O=C(O)c1ccc(/C=N/Nc2cccc(C(F)(F)F)c2)cc1,4.5
Cc1cc(OCC(=O)O/N=C(\N)c2ccccc2)ccc1Br,-7.1
Cc1cc(Oc2ccc(=O)n(C)n2)nc(SCC(N)=O)n1,11.2
Cc1cc(NC(=O)C2CC2)n(-c2nc3ccccc3s2)n1,-5.4
O=C(NNc1nc2cc3c(cc2s1)OCO3)c1cccc(F)c1,-1.6
COc1cc(NC(=O)c2ccc3snnc3c2)cc(OC)c1,12.3
Cc1noc(C)c1N=Nc1ccccc1C(=O)O,15.2
COC(=O)C1=NN(c2ccccc2)C2C(=O)N(c3ccccc3OC)C(=O)C12 (stereo not drawn),20.8
COc1ccc(/C=N\Nc2ccc([N+](=O)[O-])cc2[N+](=O)[O-])c(C(=O)O)c1OC,9.6
Cn1cc(C2N3CC4(C)CN2CC(C)(C3)C4=O)c2ccccc21 (stereo not drawn),0.0
N#CCC(=O)Nc1ccc(C(=O)NCc2cccc(Cl)c2)cc1,11.6
NC(=O)[C@@H]1CCCCNc2c(I)cc([N+](=O)[O-])cc2C(=O)N[C@@H](CCC(=O)O)C(=O)N[C@@H](CO)C(=O)N1,15.2
COc1ccc2cc(CN(CC3CCCO3)C(=S)NCc3ccco3)c(=O)[nH]c2c1 (stereo not drawn),9.0
Cc1cccc(NC(=O)CN2C(=O)N/C(=C\c3cccn3-c3cccc(C(=O)O)c3)C2=O)c1,16.4
Cc1cc(C)n(-c2ccc(C(=O)NCCCN3CCOCC3)cc2)n1,9.1
COc1ccc(Br)c(C(=O)NC(C)(C)CO)c1,18.6
O=C(Nc1ccc2oc(-c3ccccc3)nc2c1)c1ccccc1F,5.1
CC(NC(=O)c1cc2ccccc2o1)c1ccccc1 (stereo not drawn),30.1
CC(=O)Nc1sc(C)c(C)c1C(=O)OCC(=O)Nc1cc(S(C)(=O)=O)ccc1Cl,17.4
Cc1ccc(NC(=S)N(N)CCO)cc1,11.5
CC(=O)c1ccc(N2CCN(C(=O)Nc3ccc(Cl)cc3)CC2)cc1,4.6
CCCCC1S/C(=N/N=C/c2ccco2)NC1=O (stereo not drawn),15.8
CCN(CC)C(=O)C1CCCN(Cc2ccc(N(C)C)cc2)C1 (stereo not drawn),10.4
CCOc1ccc(NC(=S)N2CCN(c3ccc(N4CCOCC4)nn3)CC2)cc1,18.8
COCCCNC(=O)CCn1c(=O)c2ccccc2n(CC(=O)NCCc2ccc(OC)c(OC)c2)c1=O,29.0
CC(O)CNCCCOc1ccc(Cl)cc1C(C)(C)C (stereo not drawn),14.8
O=C(/C=C/c1ccccc1)Nc1ccc(CN2CCOCC2)cc1,6.0
CC(=O)c1ccc(N2CCN(C(=O)CCN3C(=S)NC(C)(C)CC3C)CC2)cc1 (stereo not drawn),7.1
Cc1c(C(=O)C(=O)NCc2cccs2)c2ccccc2n1C,3.4
COc1cccc(/C=C2\SC(=S)N(N3C(=O)CCCC3=O)C2=O)c1,-30.3
O=S1(=O)C[C@H]2NC(=S)N(c3ccccc3)[C@H]2C1,12.9
O=C(CC1S/C(=N/N=C/C=C/c2ccccc2)NC1=O)Nc1ccc(C(=O)O)cc1 (stereo not drawn),1.9
COC(=O)c1sc(NC(=O)c2c(F)cccc2F)c(C#N)c1C,11.8
O=C(CSc1oc(-c2ccco2)nc1S(=O)(=O)c1ccccc1)NCC1CCCO1 (stereo not drawn),10.3
COc1ccc(OC)c(NC(=O)CSc2nnc(C3CCCCC3)o2)c1,6.7
Cc1cc(C)cc(NC(=O)c2ccc([N+](=O)[O-])o2)c1,7.2
CCCn1c(=O)c(C(=O)NNS(=O)(=O)c2ccc(Cl)cc2)c(O)c2ccccc21,16.7

# Among those listed so far, these have bromine.
SMILES,Biofilm kill mix
Cc1nc([N+](=O)[O-])c(Br)n1CC(=O)c1cccc([N+](=O)[O-])c1,9.9
Clc1ccc(-c2c[n+](Cc3ccc(Br)cc3)c3n2CCCCC3)cc1,19.6
Cc1cc(OCC(=O)O/N=C(\N)c2ccccc2)ccc1Br,-7.1
COc1ccc(Br)c(C(=O)NC(C)(C)CO)c1,18.6

# Given bar-delimited: part of the list above
mol | Biofilm kill mix
COc1ccc(OC)c(NC(=O)CSc2nnc(C3CCCCC3)o2)c1 | 6.7
COCCCNC(=O)CCn1c(=O)c2ccccc2n(CC(=O)NCCc2ccc(OC)c(OC)c2)c1=O | 29.0
O=C(/C=C/c1ccccc1)Nc1ccc(CN2CCOCC2)cc1 | 6.0

# Later entries
SMILES,Biofilm kill mix
O=c1ccc(N=Nc2ccccc2)ccc1O,6.6
Cc1cccc(NC(=O)c2ccc([N+](=O)[O-])s2)c1C,14.4
CSC(=N/N=C(\N)c1cnccn1)SC,11.6
c1ccc(-c2nccc(-c3ccco3)n2)nc1,-27.5
CCCc1c(C(=O)NNc2ccccc2OC)cnn1-c1ccccc1,0.7
O=C(NN1CCOCC1)c1cccc2ccccc12,20.2
O=C(Nc1cccc(NC(=O)c2ccco2)c1)c1ccc2c(c1)OCCO2,9.7
CCN(CCNC(=O)C1CCN(S(=O)(=O)c2c(C)noc2C)CC1)c1ccccc1,13.4
CCCOc1ccccc1N1C(=O)CC(N(O)c2ccccc2)C1=O (stereo not drawn),8.2
COc1ccc(C(=O)NCc2ccccn2)cc1,11.0
COc1cc(NC(=O)COc2ccc(-n3ccnc3)cc2)cc(OC)c1,4.4
CCN1C(=O)/C(=c2\s/c(=C3\Sc4ccccc4N3C)c(=O)n2C)N(C)C1=S,1.4
CC(=O)C1=C(O)C(=O)N(CCc2ccccc2)C1c1ccccc1[N+](=O)[O-] (stereo not drawn),15.2
COC(=O)/C(=N/Nc1cccc(C)c1)N1CCCc2ccccc21,13.1
COC(CNC(=O)c1ccc(N2CCc3ccccc32)c([N+](=O)[O-])c1)OC,11.1
COc1cc(C(=O)Nc2ccc(S(=O)(=O)Nc3cc(C)nc(C)n3)cc2)cc(OC)c1OC,-2.4
COc1cccc(NC(=O)C2CC(=O)N/C(=N/NC(=O)c3ccc(C)cc3)S2)c1 (stereo not drawn),14.9
N#CCC(=O)Nc1ncc(Cc2ccccc2Cl)s1,10.2
C=CCn1c(SCC(=O)NC(=O)c2cccn2C)nc2ccccc2c1=O,0.2
O=C(NCc1ccncc1)C1=NN(c2ccccc2)C(=O)CC1,8.2
COc1ccc(CC(=O)NCc2nn(-c3ccccc3)nc2C)cc1OC,21.1
N/C(=N\OC(=O)c1ccc2c(c1)OCO2)c1ccncc1,2.3
CCN(C(=O)CSc1nnc(C)n1-c1ccccc1)C1CCS(=O)(=O)C1 (stereo not drawn),3.0

# Compound activity as filed in PubChem.
